Large T inhibition – SV40 large T antigen inhibitors, biochemical (AID 1903); SV40 large T antigen ATPase/helicase inhibition assay; higher % means a stronger effect; one-dose inhibition, % at 20 µM; IC50 in µM for titrated hits; 310,000 tested, 0.39% active; in the data active = a potency from the dose series; note: strong numbers were not always called active
Rac1 GTP hydrolysis – MgcRacGAP GTPase-activating activity inhibitors, confirmation, biochemical, ADP Hunter fluorescence; Rac GTPase-activating protein 1 (Homo sapiens); MgcRacGAP-stimulated Rac1 GTP hydrolysis, ADP Hunter fluorescence; higher % means a stronger effect; GST-tagged Rac1 F28L mutant substrate; inhibition, % at 30 µM; hits with a dose series show IC50 in µM; 340,000 tested, 0.6% active; AID 624330, 2012;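 active = first-screen hits whose inhibition reached a set limit at any dose in the follow-up dose series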;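 note: fluorescence reports GDP produced by GAP-driven GTP hydrolysis; strong numbers were not always called active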
GPR55 antagonists – GPR55 antagonists blocking LPI-driven arrestin recruitment, primary screen, imaging, U2OS, beta-arrestin-GFP, LPI agonist (AID 2013). G-protein coupled receptor 55 (Homo sapiens). U2OS GPR55 beta-arrestin-GFP translocation imaging, LPI antagonism; higher % means a stronger effect. one-dose inhibition, % at 10 µM; IC50 in µM for titrated hits. 290,000 tested, 0.13% active;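 active = spots per cell inhibited over 60%, with over 100 cells counted and total cytoplasm intensity under 500,000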;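 note: U2OS cells stably carrying GPR55 and arrestin-GFP stimulated by 5 µM LPI near EC80; imaged beta-arrestin-GFP aggregate spots per cell after agonist stimulation; plate controls were LPI-stimulated DMSO wells for no effect and DMSO wells without LPI for full effect; some results filed as inactive read as strong as hits; confirmed hits need IC50 under 10 µM and bright autofluorescent wells are also inconclusive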
GPR55 beta-arrestin – GPR55 agonists via beta-arrestin recruitment, primary screen, imaging, U2OS cells, beta-arrestin-GFP redistribution (AID 1961) | G-protein coupled receptor 55 (Homo sapiens) | U2OS GPR55 beta-arrestin-GFP redistribution imaging; higher % means a stronger effect | activation, % at 10 µM; hits with a dose series show EC50 in µM | 290,000 tested, 0.048% active;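 active = activation above 40% with more than 50 cells counted in the well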;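 note: U2OS osteosarcoma cells stably expressing GPR55 and beta-arrestin-GFP; plate controls were DMSO negative control for no effect and LPI positive control for full effect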
HIV fusion peptide – inhibitors of HIV fusion peptide binding, primary screen, biochemical, uHTS, fluorescence dequenching (AID 1986) | cell-free peptide binding, fluorescence dequenching, 30 min; higher % means a stronger effect | inhibition, % at 20 µM; hits with a dose series show IC50 in µM | 290,000 tested, 0.3% active; in the data active = inhibition mostly above about 52%, no sharp cut-off; inactive = mostly below about 76%; note: some results filed as inactive read as strong as hits
* marks the source's active call; other numbers are inactive results; x = not tested or not shown; & = joins results of further samples. This is a subset; count on the stated rates, not on these rows.

Order of values – Large T inhibition, Rac1 GTP hydrolysis, GPR55 antagonists, GPR55 beta-arrestin, HIV fusion peptide
> CC(NCc1ccc(Cl)cc1Cl)C(O)c1ccccc1 (stereo not drawn)
→ 0%, 0%, 21%, -0.1%, 2.6%
> Oc1ccc2c3c1OC1c4[nH]c5ccccc5c4C[C@@]4(O)C(C2)N(CC2CC2)CC[C@]314 (stereo partly drawn)
→ x, 5%, x, x, x
> COc1ccc(-n2c(O)c(C(C)=NCCCn3ccnc3)c(=O)[nH]c2=O)cc1
→ 3%, 6%, x, 0.3%, -1.1%
> Oc1ccc2c3c1OC1C(O)CC[C@@]4(O)[C@@H](C2)N(CC2CCC2)CC[C@]314 (stereo partly drawn)
→ 24%&4%, x, -14%, -0.5%, -0.9%
> Cc1ccc(NP(=O)(Oc2ccccc2F)Oc2ccccc2F)cc1
→ 8%, 2%, -9%, -0.1%, 2.1%
> CCCCOc1ccc(CC2C(=O)N(C)C(=O)N(C)C2=O)cc1
→ 4%, 8%, 6%, 0.3%, -2.3%
> CN(C)[C@@H]1C(=O)C(C(N)=O)=C(O)[C@@]2(O)C(=O)C3=C(O)c4c(O)cccc4[C@@](C)(O)[C@H]3C[C@@H]12
→ 55%, x, x, x, x
> O=C1CC[C@@]2(O)[C@H]3Cc4ccc(O)c5c4[C@@]2(CCN3CC2CC2)[C@H]1O5
→ 4%, 9%, 9%, -0.1%, 2.1%

Given with tabs: 7 of the compounds above
SMILES	Large T inhibition	Rac1 GTP hydrolysis	GPR55 antagonists	GPR55 beta-arrestin	HIV fusion peptide
Oc1ccc2c3c1OC1c4[nH]c5ccccc5c4C[C@@]4(O)C(C2)N(CC2CC2)CC[C@]314 (stereo partly drawn)	x	5%	x	x	x
COc1ccc(-n2c(O)c(C(C)=NCCCn3ccnc3)c(=O)[nH]c2=O)cc1	3%	6%	x	0.3%	-1.1%
Oc1ccc2c3c1OC1C(O)CC[C@@]4(O)[C@@H](C2)N(CC2CCC2)CC[C@]314 (stereo partly drawn)	24%&4%	x	-14%	-0.5%	-0.9%
Cc1ccc(NP(=O)(Oc2ccccc2F)Oc2ccccc2F)cc1	8%	2%	-9%	-0.1%	2.1%
CCCCOc1ccc(CC2C(=O)N(C)C(=O)N(C)C2=O)cc1	4%	8%	6%	0.3%	-2.3%
CN(C)[C@@H]1C(=O)C(C(N)=O)=C(O)[C@@]2(O)C(=O)C3=C(O)c4c(O)cccc4[C@@](C)(O)[C@H]3C[C@@H]12	55%	x	x	x	x
O=C1CC[C@@]2(O)[C@H]3Cc4ccc(O)c5c4[C@@]2(CCN3CC2CC2)[C@H]1O5	4%	9%	9%	-0.1%	2.1%

Source: PubChem (several laboratories)
